MgrA DNA FP: alters Staphylococcus aureus MgrA binding to DNA. fluorescence polarization. inhibition, %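 (about 10 µg/mL by stock and volumes)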. 84,000 tested, 0.13% active. AID 602314;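 active means above 50% in either of two replicates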;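 further: 0% = protein plus DNA without compound and 100% = DNA alone without protein; higher means less MgrA bound to DNA so lower polarization; one replicate is shown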
Sa helicase inh: S. aureus DNA helicase inhibition; inhibition, %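 (tested at about 80 µM)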; purified S. aureus helicase, fluorescence unwinding assay; about half of the hits fall short of the stated cut; AID 485395; 120,000 tested, 0.05% active;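 active means both duplicates at 50% or more, or one of them with a favoured structure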;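 further: 0% = mean of negative control wells and 100% = mean of positive control wells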
Active calls of the source: *; x = no result given. The list is partial; the hit share may differ from the screen's.

SMILES	MgrA DNA FP	Sa helicase inh
Cn1c(=O)c2c(nc(SCC(=O)NC(c3ccccc3)c3ccccc3)n2C)n(C)c1=O	x	16.0
CSC1=NCCN1C(=O)c1cccc(C)c1	x	1.0
COc1ccc(-c2csc(=Nc3cc(C(=O)O)ccc3C)o2)cc1	-2.7	14.0
OC(CN1CCOCC1)Cn1c2c(c3ccccc31)CCCC2 (centres undefined)	3.6	-20.0
O=C(CN1C(=O)c2ccccc2C1=O)N1CCCC1	2.1	13.0
Cc1cc(C)c2c(N)nn(C)c2n1	x	-19.0
CC(NC(=O)c1cccnc1)C(=O)N1CCCCC1 (centres undefined)	x	0.0
NNC(=O)CNc1ccccc1	x	-16.0
N#C/C(=C\NC(=O)c1ccccc1)C(=O)N1CCOCC1	x	-2.0
OCCc1c[nH]c2ccc(OCc3ccccc3)cc12	2.1	11.0
Cc1[nH]n(-c2ccccc2)c(=O)c1C=NC(C)C	x	-19.0
Cc1c(C(=O)NCc2ccco2)cc(-c2ccccc2)n1CCSCc1c(F)cccc1Cl	0.1	x
COC(=O)c1cc(COC(=O)CNC(=O)c2ccc(Br)cc2)oc1C	x	27.0
CC1(C)C(=O)Nc2ccccc2N1C(=O)COC(=O)c1ccc(S(=O)(=O)C(F)F)cc1	x	3.0
CCCCCn1c(C)c2c(OCC)cccc(=O)c2c1C	x	2.0

Seven records picked at random from the list so far:
SMILES	MgrA DNA FP	Sa helicase inh
Cc1c(C(=O)NCc2ccco2)cc(-c2ccccc2)n1CCSCc1c(F)cccc1Cl	0.1	x
Cc1cc(C)c2c(N)nn(C)c2n1	x	-19.0
Cn1c(=O)c2c(nc(SCC(=O)NC(c3ccccc3)c3ccccc3)n2C)n(C)c1=O	x	16.0
CCCCCn1c(C)c2c(OCC)cccc(=O)c2c1C	x	2.0
COC(=O)c1cc(COC(=O)CNC(=O)c2ccc(Br)cc2)oc1C	x	27.0
COc1ccc(-c2csc(=Nc3cc(C(=O)O)ccc3C)o2)cc1	-2.7	14.0
Cc1[nH]n(-c2ccccc2)c(=O)c1C=NC(C)C	x	-19.0

More results follow.
SMILES	MgrA DNA FP	Sa helicase inh
COc1ccc(CNC(=O)C2CSC(=O)C2)cc1 (centres undefined)	0.1	-13.0
CCOC(=O)c1cc2c(=O)n3ccccc3nc2n(Cc2ccco2)c1=NC(=O)c1ccccc1	x	-27.0
NNC(=O)C1=CC(C(=O)c2cccs2)=NN(c2ccccc2)C1C(=O)NN (centres undefined)	17.1	x
CCc1cc(-c2oncc2-c2ccc(Br)cc2)c(O)cc1OC	x	16.0
CCN(CC)CCSc1nc2ccc(OC)cc2[nH]1	-0.8	-6.0
Nc1nc2c(s1)c(=O)[nH]c(=O)n2-c1ccc(Cl)cc1	-0.6	12.0
Cc1ccc(CC(C#N)Sc2nccn2C)cc1 (centres undefined)	x	-16.0
CCOc1ccc(OCC)c(S(=O)(=O)NCc2ccccn2)c1	x	11.0
Cc1cc(C(=O)N(C)C2CCCCC2)on1	x	9.0
CCC1CSC(Nc2ccc(OC)cc2)=N1 (centres undefined)	-1.6	6.0
COc1ccc(/C=C/C(=O)Nc2cccnc2)cc1OC	0.0	-3.0
CC(=O)N(CCN(C)C)c1nc2c(F)cccc2s1	x	-15.0
COc1ccc(NCC(=O)/C(C#N)=C(\C)Nc2ccc(OC)cc2)cc1	x	-6.0
CC1CC(C)CN(C(=O)COC(=O)Cc2ccc(Cl)cc2)C1 (centres undefined)	-0.7	-8.0
COCCN1Cc2cccc(C(=O)N(CC(=O)NC3CCCCC3)Cc3ccc4c(c3)OCO4)c2C1=O	-25.4	7.0
Cc1nc2c(ccc3nc(Nc4nc5cc6c(cc5s4)OCCO6)sc32)s1	x	24.0
O=c1cc(-c2ccccc2)nc2cc(-c3cccs3)[nH]n12	-1.5	x
CC(C)(C)c1cc(NC(=O)C2COc3ccccc3O2)n[nH]1 (centres undefined)	-1.1	x
COc1cc(-c2nnc(SCC(=O)c3ccc(CC(=O)N4CCOCC4)s3)o2)cc(OC)c1OC	x	-7.0
O=S(=O)(c1cccs1)N1CCCC2C=CC=CC21 (centres undefined)	x	14.0
O=C(NCC1CCCO1)c1cn(-c2ccccc2)nc1-c1ccc(Cl)cc1 (centres undefined)	-2.0	-14.0
CCN(Cc1ccccc1)S(=O)(=O)c1ccc2c(c1)oc(=O)n2C	-1.6	11.0
Cc1cc(C(=O)c2cc3cc(Cl)ccc3o2)ccc1Cl	-1.8	x
Oc1ccc(/C=N\n2cnnc2)cc1	2.1	x
O=S(=O)(c1cccs1)N1CCN(S(=O)(=O)c2cccs2)CC1	x	-4.0
NC1CCN(Cc2cccc(F)c2)CC1	-5.2	7.0
NC(N)=NC(N)=Nc1ccc2c(c1)OCCO2	-2.7	x
O=C(C(Sc1ccccc1)c1ccc(Br)cc1)N1CCOCC1 (centres undefined)	0.0	-14.0
COCCNC(=O)c1ccc(CS(=O)(=O)c2c(Cl)cccc2Cl)o1	x	8.0
CC(=O)OC(OC(C)=O)C12C=CC(O1)C1C(=O)N(c3ccccc3-c3ccccc3)C(=O)C12 (centres undefined)	4.1	-5.0
Cc1ccc(C(=O)O)cc1-n1c(C)ccc1C	x	2.0
NCCc1nc(-c2ccccc2)no1	1.1	-3.0
CC1CCC(C(C)C)C(N(Cc2ccccc2)C(=O)c2cccs2)C1 (centres undefined)	-1.0	x
Cc1ccc2c(c1)CCCN2C(=O)c1c(-c2c(Cl)cccc2Cl)noc1C	-3.3	x
O=C(CSc1ncnc2ccccc12)N1N=C2/C(=C/c3ccco3)CCCC2C1c1ccco1 (centres undefined)	x	-6.0
O=C(COCc1cc(-c2ccco2)on1)N1CCCCC1	x	18.0
COc1ccc(-c2coc3cc4oc(=O)c5c(c4cc23)CCCCC5)cc1	3.2	9.0
CCn1nnc(NC(=O)COc2ccccc2)n1	-1.4	-1.0
COc1cccc(NC(=O)Nc2cn(C)c(=O)c3ccccc23)c1	-0.4	2.0
COc1ccc(OCCSc2nc(C)nc3ccccc23)cc1	x	13.0
CCCCn1c(SCC(=O)NC(C)(C)C)nnc1-c1ccncc1	-0.7	10.0
CNC(=O)CSc1nnc(-c2ccc3c(c2)OCO3)o1	x	-15.0
CCOC(=O)CSc1nc(SCC(=O)OCC)c2c3c([nH]c2n1)CCCC3	x	3.0
N#CCS(=O)(=O)Cc1cccs1	4.1	x
Cc1ccc(S(=O)(=O)N2CCCC2C(=O)NCCc2nc3ccccc3[nH]2)cc1 (centres undefined)	x	16.0
CN(C)S(=O)(=O)c1ccc(C(=O)N2CCc3ccccc3C2)cc1	x	12.0
CNC(=O)c1ccccc1NS(=O)(=O)c1ccc(Br)cc1	-1.3	8.0
O=C(O)c1cc(Cl)c(Cl)cc1C(=O)O	x	-18.0
Cc1ccc(S(=O)(=O)N2CCN(CC(=O)N=Nc3c(O)[nH]c4c(C)c(C)ccc34)CC2)cc1	x	-1.0
CCOC(=O)c1ccc(NC(=O)CN2C(=O)c3ccccc3C2=O)cc1	x	7.0
CCOC(=O)N1CCN(C(=O)CCc2nc3sc4c(c3c(=O)[nH]2)CCCC4)CC1	x	-15.0
Cc1ccc(S(=O)(=O)C(F)F)cc1S(=O)(=O)C(F)F	x	-6.0
COc1cccc2sc(NC(=O)c3ccccc3Cl)nc12	-1.3	8.0
Cc1ccc(S(=O)(=O)/C(C#N)=C/c2ccccc2)cc1	3.3	17.0
Cc1nc2nc(C)c(CCC(=O)NCCC3=CCCCC3)c(C)n2n1	0.2	2.0
N#Cc1cc2c(=O)n3ccccc3nc2n(-c2cccc(C(F)(F)F)c2)c1=O	1.1	18.0
Cc1cc(=O)n(-c2ccc(O)cc2)[nH]1	x	11.0
CCc1ccc2c(CNC(CC)CC)cc(=O)oc2c1	x	11.0
CCOC(=O)C1CCCCN1Cc1ccco1 (centres undefined)	-1.1	6.0
Cc1cc(=O)n2c(n1)sc1ccccc12	x	-27.0

(listing goes on)
SMILES	MgrA DNA FP	Sa helicase inh
CCCc1cc([N+](=O)[O-])c(O)c2c(=O)cc(C(=O)OCC)oc12	0.7	x
COc1cc(C)c(COc2ncnc3ccccc23)cc1OC	x	10.0
O=C(CSc1ccc(-c2cccs2)nn1)N1CCc2ccccc21	1.1	2.0
O=c1c(-c2nc3ccccc3[nH]2)coc2ccc(Cl)cc12	-2.2	-70.0
CCCCn1c(=O)c(C)c(C)c2ccccc21	2.4	x
CCCN(C(=O)CSc1nnc(-c2ccco2)o1)C1=CCCCC1	x	-9.0
O=P1(c2ccccc2)C=CC(O)C1 (centres undefined)	x	33.0
CCOC(=O)CCN1C(=O)c2ccccc2S1(=O)=O	-3.2	x
COc1ccc(CNC(=O)CCn2c(=O)[nH]c3ccccc3c2=O)cc1	0.9	2.0
COc1cccc(-n2cc(C(=O)N(C)C3CCCCC3)c3ccccc3c2=O)c1	x	-32.0
COc1cc(C=C2C(=O)NC(=S)NC2=O)cc(Cl)c1OCCOc1ccc(C)c(C)c1	17.5	x
CCN(C(=O)COc1ccc2ccc(=O)oc2c1)C1CCCCC1	-0.5	-4.0
CCn1c(=O)c2cc(C(=O)N(C)c3cc(Cl)ccc3C)sc2c2ccccc21	0.6	9.0
O=C(Nc1nn2cnnc2s1)c1ccncc1	x	25.0
CCOC(=O)COc1ccc2c3c(c(=O)oc2c1C)CCC3	x	3.0
COC(=O)C(C)Oc1ccc2c(C)cc(=O)oc2c1 (centres undefined)	x	14.0
CC(C)/C=N/NC(=O)c1cccc(N2CCCC2=O)c1	2.5	3.0
O=C(Nc1cccnc1Cl)C1CSC(c2ccncc2)=N1 (centres undefined)	-1.3	8.0
CC1Cc2ccccc2N1C(=O)COC(=O)/C=C/c1ccco1 (centres undefined)	1.7	10.0
CCOC(=O)c1sc(S(C)(=O)=O)c2c1CC(C)(C)CC2=O	0.7	x
CCN(CC)c1ccc2cc(-c3csc(C)n3)c(=O)oc2c1	x	-190.0
Cc1oc(-c2ccccc2)nc1C(=O)O	-3.0	7.0
Cc1ccc(/C=C2\SC(=S)N(C(CCC(=O)O)C(=O)O)C2=O)cc1 (centres undefined)	x	20.0
COc1ccc(N2CC(NC(=O)NCc3ccc4c(c3)OCO4)CC2=O)cc1OC (centres undefined)	x	4.0
CCC(=O)Nc1ccc(-c2ccc(NC(=O)CC)c(OC)c2)cc1OC	x	-5.0
O=S(=O)(NC1CCCCC1NCc1ccco1)c1ccccc1 (centres undefined)	x	-6.0
CCc1nnc(NC(=O)CCCSc2ccccc2)s1	x	15.0
CC12CCOC1N(c1ccccc1)c1ccccc12 (centres undefined)	x	-9.0
COC(=O)c1cc2c(=O)n3ccccc3nc2n(CCN2CCOCC2)c1=N	0.8	18.0
O=C1NC(=O)C2(CCCCC2)N1	1.5	x
Cc1cc(C)nc(C#N)n1	1.4	20.0
CCOC(=O)C1CCN(Cc2cc(=O)n3c(-c4ccccc4)csc3n2)CC1	x	2.0
COc1ccc(NC(=O)CSc2nc3ccccc3[nH]c2=O)cc1	x	13.0
COc1ccc(N2CCN(C(=O)c3oc4ccc(Br)cc4c3C)CC2)cc1	x	14.0
Cn1cc(S(=O)(=O)N2CCCC2)cc1C(=O)N1CCCc2ccccc21	0.9	2.0
O=C(Nc1ccc2[nH]c(=O)[nH]c2c1)c1c(F)c(F)c(F)c(F)c1F	x	6.0
COC(=O)[C@H](C)NC(=O)Cc1cccc2ccccc12	x	2.0
CCOC(=O)Cc1nnc2c3ccccc3n(C)c2n1	-3.5	7.0
O=C(COC(=O)c1cc(Br)ccc1O)c1ccc(F)cc1	-1.9	26.0
CC(C)(C)C1CCc2c(sc(N)c2C(N)=O)C1 (centres undefined)	-1.6	12.0
CC1=C(C(=O)OC(C)C)C2(O)C(=O)c3ccccc3C2(O)N1 (centres undefined)	5.4	19.0
Cc1ccc2oc(-c3ccccc3C(=O)O)cc(=O)c2c1	x	11.0
O=C(O)CC(C1CCCCC1)n1cccc1 (centres undefined)	-1.5	x
O=C(CC(c1ccccc1)C1CCCCC1=O)c1ccco1 (centres undefined)	-2.8	13.0
Cc1c(C(=O)Nc2ccc(F)cc2)cnn1-c1ccc(F)cc1	x	-9.0

Copied from the listing, five compounds:
SMILES	MgrA DNA FP	Sa helicase inh
Cc1ccc(/C=C2\SC(=S)N(C(CCC(=O)O)C(=O)O)C2=O)cc1 (centres undefined)	x	20.0
COc1ccc(N2CC(NC(=O)NCc3ccc4c(c3)OCO4)CC2=O)cc1OC (centres undefined)	x	4.0
CCC(=O)Nc1ccc(-c2ccc(NC(=O)CC)c(OC)c2)cc1OC	x	-5.0
O=S(=O)(NC1CCCCC1NCc1ccco1)c1ccccc1 (centres undefined)	x	-6.0
CCc1nnc(NC(=O)CCCSc2ccccc2)s1	x	15.0

Following part.
SMILES	MgrA DNA FP	Sa helicase inh
CC(C)NC(=O)CSc1nnc2sc3ccccc3n12	x	-5.0
CCCCNC(=O)C1(O)c2ccccc2NC(=O)N1c1ccccc1 (centres undefined)	x	32.0
CCOC(=O)CNc1c(-c2ccc(OC)cc2)nc2ccc(Cl)cn12	-0.7	15.0
CCc1nnc2sc(-c3ccccc3N)nn12	2.6	-12.0
COC(=O)c1sc(SC)c(S(=O)(=O)c2ccc(Cl)cc2)c1C	0.2	x
CCc1ccc2[nH]cc(S(=O)(=O)c3ccccc3)c(=O)c2c1	-0.1	13.0
COc1ccc(C(c2cc3c(cc2O)OCO3)N2CCOCC2)cc1 (centres undefined)	1.3	7.0
CCOC(=O)CSc1nc(=O)cc(N)n1Cc1ccc(F)cc1	0.3	-7.0
COC(=O)c1cccc(CSc2nnc(C(F)(F)F)n2C)c1	0.6	x
COc1ccc2oc(-c3cccc(F)c3)cc(=O)c2c1	2.2	6.0
Cc1ccc2nc(SCC(=O)Nc3ccccc3)[nH]c2c1	1.6	-17.0
CN1CCCN(C(=O)Cc2c(Cl)cccc2Cl)c2nc3ccccc3nc21	x	-7.0
CCN1CCN(c2ccc(N=Cc3ccc(N(C)C)cc3)cc2)CC1	3.7	-1.0
CN(C(=O)CSc1nnc2c3ccccc3n(C)c2n1)C1CCCCC1	2.1	15.0
CCCCn1c(CNc2ccc(C)cc2)nnc1SCC(=O)OC	-3.8	9.0
CC(=O)Oc1ccc(-c2ccc(C(=O)NCCCN3CCCC3=O)cc2)cc1	-1.3	14.0

Bioassay records: PubChem, ICCB-Longwood Screening Facility, Harvard Medical School
